Screens: PubChem BioAssay, PCMD
Calb biofilm kill: mixture kills Candida albicans biofilm cells. C. albicans biofilm persisters + clotrimazole, fluorescence viability; primary screen in compound mixtures of four per well. inhibition, % at 7.6 µM. hit rate 0.02% among 120,000. AID 1242;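 active = inhibition above 30.3% in the primary screen of four-compound pools, then above 30% when the compound was retested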;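 also: compounds exposed to preformed 24 h biofilms for 48 h; the number belongs to the whole pool; some results filed as inactive read as strong as hits; inactives centre near 12; 0% = biofilm with clotrimazole alone and 100% = kill control; retested singly at about 60 µM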
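Probe or stimulus – Clotrimazole 50 µg/mL co-treatment · System – C. albicans biofilms · Schedule – 24 h biofilm formation, then 48 h compound exposure, 37 °C · Evaluation – percent inhibition of biofilm viability · Technique – 2-h Alamar Blue fluorescence, 535/590 nm excitation/emission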
* marks the source's active call; other numbers are inactive results. A portion of the library. The share of hits here may be higher or lower than overall.

SMILES | Calb biofilm kill
Cc1cc(C(=O)Nc2ccc(S(=O)(=O)N3CCOCC3)cc2)c(C)o1 | 14
Nc1cccc(-c2cc3ccccc3oc2=O)c1 | 1
O=C(Nc1ccccc1F)c1ccc(CSc2ncccn2)cc1 | 13
CN(C)S(=O)(=O)c1ccc(C(=O)Nc2nnc(SCc3cccc(F)c3)s2)cc1 | 13
Cc1ccc(-c2n[nH]c(=S)n2C)cc1Cl | 13
CNC(=O)C(=O)NCC1OCCN1S(=O)(=O)c1ccc([N+](=O)[O-])cc1 (stereo unspecified) | 15
Cc1cc(C)cc(OCC(=O)NCc2cc(C)nc3ccccc23)c1 | 0
O=C(C[n+]1cc(-c2ccccc2)n2c1CCC2)c1cccs1 | 6
C/C(=N\NC(=S)NC(C)C)c1ccc(Cl)c([N+](=O)[O-])c1 | 17
CCOC(=O)Cc1cc(-c2ccc(OC)cc2)nc2ccc3ccccc3c12 | 16
Cc1nc(N2CCOCC2)nc(N2CCCCC2)c1[N+](=O)[O-] | 16
COc1ccc(C2CCCN2C(=S)Nc2ccc(C)c(C)c2)cc1OC (stereo unspecified) | 3
CC(C)c1cc(C(=O)NNC(=S)NCc2ccco2)c(O)c(C(C)C)c1 | 0
Cc1ccc(-n2c(-c3ccccc3)nnc2-c2cccs2)cc1 | 6
C#CCCOC(=O)N1C2=NC(C(=O)OC)=C(C(=O)OC)[C@@H]3N(Cc4ccccc4)c4ccccc4[C@]23C[C@H]1C(=O)OC | 9
CCOC(=O)c1c(C=O)c2sc(C)cc2n1C | 12
COc1cc(OC)c2cc(C(=O)N/N=C/c3cccc(OC)c3O)[nH]c2c1 | 20
CCOC(=O)c1sc(Nc2nc(C)cc(OC)n2)nc1C | 26
CCOC(=O)c1sc2ncnc(N3CCN(C)CC3)c2c1C | 12
CCC(=O)Nc1ccc(C(=O)CN2CCC(C)CC2)cc1 | 13
CC1CC(C)CN(CC(=O)NC(c2ccccc2)c2ccccc2)C1 (stereo unspecified) | 18
COCCNC(=O)CC(=O)N/N=C/c1ccc(C(=O)OC)cc1 | 8
COc1ccccc1C(=O)NCC(=O)OCC(=O)Nc1cccc(S(=O)(=O)N2CCCCCC2)c1 | 11
CCC(C)(C(=O)Nc1ccccc1C)N(C(=O)CNC(C)=O)c1ccc(C)cc1 (stereo unspecified) | 19
COc1ccc([N+](=O)[O-])cc1NS(=O)(=O)c1cccc(C(=O)O)c1 | 5

Gathered by group: the entries above containing an aryl thioether with sulfur outside any ring.
SMILES | Calb biofilm kill
O=C(Nc1ccccc1F)c1ccc(CSc2ncccn2)cc1 | 13
CN(C)S(=O)(=O)c1ccc(C(=O)Nc2nnc(SCc3cccc(F)c3)s2)cc1 | 13

Back to the main list; the 3 compounds before the break are reprinted first.
SMILES | Calb biofilm kill
COc1ccccc1C(=O)NCC(=O)OCC(=O)Nc1cccc(S(=O)(=O)N2CCCCCC2)c1 | 11
CCC(C)(C(=O)Nc1ccccc1C)N(C(=O)CNC(C)=O)c1ccc(C)cc1 (stereo unspecified) | 19
COc1ccc([N+](=O)[O-])cc1NS(=O)(=O)c1cccc(C(=O)O)c1 | 5
CC(=O)c1cccc(NC(=O)[C@@H](NC(N)=O)C(C)C)c1 | 1
CCN1CCN(c2nc(Nc3cc(OC)ccc3OC)nc(Nc3cc(OC)ccc3OC)n2)CC1 | -5
CCn1c2ccccc2c2cc(/C=N/NC(=O)c3ccncc3)ccc21 | 8
Cn1cc(CN2CCC(C(=O)N3CCCC3)CC2)c(-c2ccccc2F)n1 | 2
OCCCN1CCN(CCOc2ccccc2-c2ccccc2)CC1 | -1
O=C(CN1CCCN(Cc2ccc(F)cc2Cl)C1=O)NC1CCCC1 | 12
CCOCCn1c(CC)nc2ccccc21 | 6
COCCn1c(SCC(=O)Nc2ccccc2C)nc2c(oc3ccccc32)c1=O | 10
O=C(Cc1cccc2ccccc12)NCCOc1ccccc1F | 14
CNC(=O)c1[nH]cnc1C(=O)N[C@@H](Cc1ccccc1)C(=O)OC(C)(C)C | 16
CCN1CCC2(CC1)Oc1c(OC)cccc1C1CC(c3cccnc3)=NN12 (stereo unspecified) | 27
CC(C)C[C@H](NC(=O)c1nc[nH]c1C(=O)NCC(=O)OC(C)(C)C)C(=O)OCc1ccccc1 | 19
C[C@H](c1ccccc1)n1nnc(COCc2ccccc2)c1C#CCOCc1ccccc1 | 17
CCCOc1ccc(-c2cc(C(F)(F)F)c(C#N)c(SCC(=O)O)n2)cc1 | 5
C=CCn1c(SC(C)C#N)nc2sc(CC)cc2c1=O (stereo unspecified) | 13
COc1ccc(NC(=O)Cn2cnc3sc(C)c(S(=O)(=O)N4CCN(C)CC4)c3c2=O)cc1OC | 16
COC(=O)NCC(C)OC(=O)Nc1ccc(Cl)cc1 (stereo unspecified) | 5
O=S1(=O)CC/C(=N/Nc2ccc(C(F)(F)F)cn2)c2cc(F)ccc21 | 10
CC(=O)NCCc1nc2ccccc2n1CCOc1ccccc1 | 18
COc1ccccc1C(=O)NC(=S)Nc1ccc(S(=O)(=O)N2CCN(C)CC2)cc1 | 12
Cc1ccc(O)c(C(=O)c2cc(C#N)c(=O)n(C(C)c3ccccc3)c2)c1 (stereo unspecified) | -10
COc1ccc(-c2csc(N3N=C(C)C(C)C3=O)n2)cc1 (stereo unspecified) | 16
O=C(NCc1ccco1)C1CC(c2ccccc2O)=NO1 (stereo unspecified) | 2
O=C(NC(NC(=O)c1ccccc1)C(=O)c1ccccc1)c1ccccc1 | 14
CCOC(=O)c1ccccc1NC(=O)c1cn(-c2ccc(OC)cc2)c(=O)c2ccccc12 | 6
Other structures:
SMILES | Calb biofilm kill
O=[N+]([O-])c1ccc(-c2c[nH]c(=S)[nH]2)cc1 | 17
CC(=O)Nc1ccc(NC(=O)C(C)OC(=O)c2ccccc2Sc2ccccc2C#N)cc1 (stereo unspecified) | 18
CCN1CC(CN(C)Cc2nc(Cc3ccccc3)no2)CC1=O (stereo unspecified) | 12
CC(=O)c1ccc(N2Cc3ccccc3C3(CCOCC3)C2=N)cc1 | 15
Cc1ccc(-n2c(C(C)C)nc3oc4ccccc4c(=O)c3c2=O)cc1 | 24
O=C1NC(=Nc2ccccc2)c2c1cccc2[N+](=O)[O-] | 19
CCC(CC)C(=O)Nc1ccncc1 | -33
Cc1ccc(NC(=O)c2ccc3ccccc3n2)cc1S(=O)(=O)N(C)C | -3
O=C(COC(=O)CCSc1ccc(Cl)cc1)NCc1ccccc1Cl | 17
CCC(=O)Nc1ccc2oc(-c3cccnc3)nc2c1 | 26
O=C(Nc1cccc2ccccc12)c1ccccc1NS(=O)(=O)c1cccc2cccnc12 | 6
O=C(N/C(=C/c1ccc(Br)cc1)C(=O)N1CCOCC1)c1cccs1 | 22
CCOC(=O)/C=C/C(=O)Nc1ccc(S(=O)(=O)N(C)c2ccccc2)cc1 | 2
Cc1c(-c2ccccc2)[n+](=O)c(-c2ccc(Br)cc2)c(C)n1[O-] | 18
C=CCNCC(O)COc1ccc(C(C)=O)cc1OC (stereo unspecified) | 11
Cc1ccccc1NC(=O)c1c(C)[nH]c(=S)c(C#N)c1-c1ccc(Cl)cc1 | 10
Cc1onc(-c2c(Cl)cccc2Cl)c1C(=O)N=C(N)N1CC(C)OC(C)C1 (stereo unspecified) | 1
CN(C)c1cc(-c2cccc([N+](=O)[O-])c2)oc(=O)c1Cl | 3
O=C(Cn1nc(-c2ccccc2)c2ccccc2c1=O)Nc1ccc(O)cc1 | 20
COCC(C)OC(=O)c1c(N)n(-c2ccc(OC)c(OC)c2)c2nc3ccccc3nc12 (stereo unspecified) | 18
Cc1ccc(CN2C(=O)CCC2C(=O)NCc2ccccc2Cl)cc1 (stereo unspecified) | 13
Cc1ccc(-c2nc3c4ccccc4ccn3c2CN2CCCCC2)cc1 | 17
Cc1cc(NC(=O)CC(C)(C)C)nc2c1c(=O)oc1ccccc12 | 11
O=C(O)c1ccc(Oc2ccccc2)o1 | 19
COc1ccc(C(=O)N2CCC(C(=O)c3c(C)cc(C)cc3C)CC2)cc1 | 16

An excerpt of these results, field by field:
Molecule: CC(=O)c1ccc(N2Cc3ccccc3C3(CCOCC3)C2=N)cc1
  Calb biofilm kill: 15
Molecule: Cc1ccc(-n2c(C(C)C)nc3oc4ccccc4c(=O)c3c2=O)cc1
  Calb biofilm kill: 24
Molecule: O=C1NC(=Nc2ccccc2)c2c1cccc2[N+](=O)[O-]
  Calb biofilm kill: 19

Taken from above:
Calb biofilm kill with `O=C(Cn1nc(-c2ccccc2)c2ccccc2c1=O)Nc1ccc(O)cc1` → 20
Calb biofilm kill with `CC(=O)c1ccc(N2Cc3ccccc3C3(CCOCC3)C2=N)cc1` → 15

(list continues)
SMILES | Calb biofilm kill
CCOCCOc1nc2c(c(=O)n(C)c(=O)n2C)n1CCc1ccccc1 | 7
Cc1nn(-c2ccccc2)c(-n2cccc2)c1C(=O)O | -1
CN(NC(=O)/C=C/C(=O)O)c1ncc(C(F)(F)F)cc1Cl | 4
C=CCC(O)(CC=C)C(C)N (stereo unspecified) | 7
COc1ccc(NC(=O)C2CCCN2C(=O)Nc2ccccc2)cc1OC (stereo unspecified) | 14
Cc1cccc(Cn2c(SCCN3CCCCC3)nc3c2c(=O)[nH]c(=O)n3C)c1 | 9
Cc1cccc(NC(=O)CSc2nnc(NC(=O)c3ccc(S(=O)(=O)N4CCOCC4)cc3)s2)c1C | 9
CC(=O)N(c1ccccc1C)C1CCCC1 | 9
Cc1ccc(OCCCCn2ccnc2C)c(C)c1 | -4
O=C(NNC(=O)C1CC(c2cccnc2)=NO1)Nc1ccccc1F (stereo unspecified) | 19
COc1cccc(NC(=O)N2CCCC2C(=O)Nc2ccc3c(c2)OCCO3)c1 (stereo unspecified) | 6
COC(=O)COc1ccc(NC(=O)c2ccco2)cc1 | -33
CCOc1ccc2[nH]c3c(N4CCC5(CC4)OCCO5)ncnc3c2c1 | 22
CC1CCCCC1NC(=O)C(=O)NCC1CCCO1 (stereo unspecified) | 6
COc1ccc(C(=O)NNC(=S)NC(=O)c2ccccc2[N+](=O)[O-])cc1 | 8
CCOC(=O)N1CCC(=NNC(=O)NC2CCCCC2)CC1 | 8
CSc1cccc(NC(=S)N(C(C)C)C(C)c2ccccn2)c1 (stereo unspecified) | 14
CCCCCCCCC(=O)Nc1cc(C)ccc1OC | 6
Cc1cccc2c1-c1sc(C(=O)NCCCN3CCc4ccccc4C3)cc1CO2 | 20
O=C(NCc1nc2ccccc2[nH]1)C1=C[C@H](c2csc3ccccc23)C[C@H](OCc2ccc(CO)cc2)O1 | 6
CCOc1cc(/C=N/NC(N)=O)ccc1OCC(=O)Nc1ccc(C)c(C)c1 | 24
CCOC(=O)c1cc(-c2ccccc2)sc1NC(=O)C(C)Sc1nnc(C)s1 (stereo unspecified) | 10
CC(=O)C1=NN(c2ccc(Cl)cc2)C(c2ccc3c(c2)OCO3)N(C(C)=O)N1C (stereo unspecified) | 16
COc1ccccc1N1CCN(C(=O)c2cc(C(C)(C)C)oc2C)CC1 | 14
COc1ccc(NC(=O)c2cc3ccc4c5ccccc5[nH]c4c3cc2O)cc1 | 18
Next section.
SMILES | Calb biofilm kill
CCc1ccc(OS(=O)(=O)c2cn(C)c(=O)n(C)c2=O)cc1 | 17
C#CCn1cc(C=C2C(=O)c3ccccc3C2=O)c2ccccc21 | -14
COc1cc(N=Nc2c(C)n(C)n(-c3ccccc3)c2=O)ccc1N | 16
CN(C)S(=O)(=O)c1cccc(NC(=O)CSc2nc3ccccc3[nH]2)c1 | 4
CC(C)OCCCNC(=S)N1CCC(C(=O)c2ccc3c(c2)OCCO3)CC1 | -7
CC(=O)N1CC(=O)N(Cc2ccccc2)/C(=C/c2ccccc2)C1=O | -29
O=[N+]([O-])c1cc(Oc2cccnc2)cc([N+](=O)[O-])c1 | 1
CCn1nc(C(=O)NCc2ccco2)c(Cl)c1Cl | 9
C/C(CC(=O)Nc1c(C)cc(C)cc1C)=N\NC(=O)c1cnccn1 | 15
CC1=C(C(=O)OC(C)C)C(c2cccnc2)C2=C(CC(C)(C)CC2=O)N1 (stereo unspecified) | 7
Cc1cc(CN(C)Cc2c(C(=O)N3CCCCCCC3)nc3ccc(Cl)cn23)n[nH]1 | 17
COC(=O)[C@@]1(Cc2ccc(OC)cc2)[C@H]2c3cc(C(=O)N4CCCC4)n(CCSCCO)c3C[C@H]2CN1C(=O)c1ccccc1 | 10
Cn1c(O)c(N=NC(=O)Cn2c(C(F)(F)F)nc3ccccc32)c2ccccc21 | 14
CCCCSc1nnc(-c2ccccc2NC(C)=O)c(=O)[nH]1 | 3
Cc1ccc(C)c(-n2[nH]c3c4c(ccc3c2=O)C(=O)c2ccccc2C4=O)c1 | 14
COc1ccc2nc(Nc3nc(-c4ccncc4)cs3)sc2c1 | 12
Cc1cccnc1NC(=S)Nc1ccc(Br)cc1Cl | 3
Cn1cccc1/C=N/N1CCN(c2ccccc2)CC1 | -4
CSc1ccc(-c2nc(CN(C)C3CCOC3)c(C)o2)cc1 (stereo unspecified) | 9
COc1cc(/C=C2\SC(=Nc3ccc(O)cc3)NC2=O)cc(OC)c1OC | 14
O=C(CC1Nc2cccc3cccc(c23)NC1=O)Nc1ccccc1 (stereo unspecified) | 7
Cn1ncc(Br)c1NC(=O)CSc1ccc(Cl)cc1 | 8
O=C(COc1ccc(Cl)cc1Cl)Nn1c(=S)[nH]c2ncccc2c1=O | 22
Cc1ccccc1CSc1ccc(-c2ccc3c(c2)OCO3)nn1 | 7
Nc1nc(-c2ccccc2)cn1/N=C/c1ccccc1 | 24
Oc1cccc(C(O)CNCc2ccc(OCc3ccc(Cl)cc3Cl)cc2)c1 (stereo unspecified) | 16
N/C(=N\OS(=O)(=O)c1cccc([N+](=O)[O-])c1)c1ccncc1 | 15
